MLL AF4-AF9 inh = inhibitors of AF4 peptide binding to AF9, primary screen, biochemical, AlphaScreen, biotin-AF4 peptide, FLAG-AF9, single point; inhibition, % at 10 µM; 350,000 tested, 0.47% active; Protein AF-9 (Homo sapiens), P42568;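 active = every replicate reaching a set inhibition limit, whatever the replicate mean, cut at about 25% in these data; inconclusive = mean inhibition reaches that limit but some replicates miss it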;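 note: 0% = plate neutral control median and 100% = total signal loss; the record names both 10 and 1 µM as test concentration; the first replicate is given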
FGF22 binding = binders of human FGF22 protein, primary screen, FGF22 synaptogenesis inhibitor project, biophysical, thermal shift, single point. Fibroblast growth factor 22 (Homo sapiens), Q9HCT0. recombinant FGF22 thermal shift, SYPRO orange fluorescence; percent of sucrose octasulfate shift, DMSO zero. calls only at 9.99 µM. 340,000 tested, 1.5% active. AID 651658, 2012;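 active = melting point raised past a set limit in the mean and every replicate; inconclusive = no clear call; three in four hits are not shown here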
Target sequence (Q9HCT0 whole entry, looked up): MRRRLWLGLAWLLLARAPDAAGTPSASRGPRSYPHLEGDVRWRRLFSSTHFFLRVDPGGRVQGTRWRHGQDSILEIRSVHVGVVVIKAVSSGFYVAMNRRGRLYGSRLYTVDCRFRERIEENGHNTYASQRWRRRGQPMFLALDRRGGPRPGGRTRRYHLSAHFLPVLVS
Vif A3G = inhibitors of Vif binding to APOBEC3G peptide, primary screen, biochemical, TR-FRET, GST-Vif 1-94, biotin-A3G peptide, dose response retest (AID 1117319) | Virion infectivity factor (Human immunodeficiency virus type 1 group M subtype B (isolate … | TR-FRET GST-Vif / biotin-A3G peptide binding; higher % means a stronger effect; test concentration not given here; strong numbers were not always called active | inhibition, %, or IC50 in µM where a hit was titrated | 260,000 tested, 0.57% active;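 active = above the screen mean plus three standard deviations and confirmed in dose response; inconclusive = results disagree or hit not tested in dose response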;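 note: Vif residues 1-94 fused to GST binding biotinylated APOBEC3G peptide 110-148; 0% = full assay without inhibitor and 100% = GST in place of GST-Vif; retest series ran down from 100 µM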
HNF4A DNA FP = change in binding of human HNF4A to DNA, primary screen, biochemical, fluorescence polarization, FITC-DNA; 360,000 tested, 0.3% active; activity change, % at 10 µM; AID 1224865, 2016; 1 h; in the data active = activity change above about 30%, passing the limit was not always enough;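 note: controls were the assay level and a saturating level of protein; the project sought stronger binding though the title names inhibitors; some compounds called inactive have numbers as strong as hits; positive values seem to mean higher polarization but the record does not say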
Target sequence (P41235 whole entry, looked up): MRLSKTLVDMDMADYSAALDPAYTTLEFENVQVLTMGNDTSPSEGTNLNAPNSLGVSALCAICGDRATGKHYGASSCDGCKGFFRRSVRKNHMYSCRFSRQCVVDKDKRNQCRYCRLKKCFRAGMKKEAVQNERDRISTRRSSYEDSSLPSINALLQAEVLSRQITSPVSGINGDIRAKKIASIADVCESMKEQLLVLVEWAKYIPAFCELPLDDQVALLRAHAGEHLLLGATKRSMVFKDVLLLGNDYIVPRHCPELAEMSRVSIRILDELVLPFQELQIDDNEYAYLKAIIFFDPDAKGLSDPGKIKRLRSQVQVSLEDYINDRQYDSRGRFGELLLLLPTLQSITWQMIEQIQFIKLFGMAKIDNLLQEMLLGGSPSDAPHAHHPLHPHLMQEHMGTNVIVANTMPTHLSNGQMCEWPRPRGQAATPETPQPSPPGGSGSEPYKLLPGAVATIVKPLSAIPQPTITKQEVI
ALR inh = inhibitors of human ALR sulfhydryl oxidase, primary screen, biochemical, H2O2 detection, HRP-luminol luminescence, single point; inhibition, % (concentration not given with the values); purified ALR, DTT oxidation; 290,000 tested, 3.8% active;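 active = mean and each replicate at 75% or more; inconclusive = only one of the two met; inactive = neither met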;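 note: stock transfer was 7.5 nL into about 7.5 µL; 0% = neutral wells and 100% = wells with inactivated enzyme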
Target sequence (P55789 whole entry, looked up): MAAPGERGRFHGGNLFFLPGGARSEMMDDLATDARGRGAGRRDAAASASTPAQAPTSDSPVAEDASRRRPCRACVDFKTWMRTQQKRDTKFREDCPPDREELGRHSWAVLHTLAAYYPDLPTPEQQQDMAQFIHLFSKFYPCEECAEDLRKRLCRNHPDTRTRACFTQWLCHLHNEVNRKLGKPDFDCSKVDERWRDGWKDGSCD
E coli growth = E. coli growth inhibition, primary screen, OD600. Escherichia coli growth, 23 h; stronger effect = lower value. OD600 absorbance (test concentration not listed). 330,000 tested, 0.21% active. AID 1053175, 2014;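 active = OD600 absorbance below the run mean of sample wells minus 3.6 SD, in any replicate, cut at about 0.56 in these data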;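 note: stock transfer was 300 nL into about 60 µL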
rRNA inh HTS = reduced GFP signal of wild-type E. coli, primary screen, bacterial rRNA inhibitor project, GFP/RFP fluorescence, OD600, single point | E. coli WT GFP vs humanized-ribosome RFP mutants, 24 h; stronger effect = lower value; DMSO median 0, no signal -100 | GFP signal change (wild-type ribosome), % (test concentration not listed) | 350,000 tested, 1.6% active;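 active = significant combined selectivity score with lowered wild-type GFP, culture density cut under 30%, mutant RFP and density less affected; inactive = any of these conditions unmet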; note: one replicate is shown; some compounds called inactive have numbers as strong as hits
rRNA inh HTS OD600 = also measured in rRNA inh HTS; calls as there; OD600 change, %; measured here: OD600 growth;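 optical density of the mix in the first replicate; 0 = DMSO median and -100 = no signal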
rRNA inh HTS RFP = recorded beside rRNA inh HTS, whose call it bears; RFP signal change, %; measured here: RFP humanized mutant strains;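 first replicate; 0 = DMSO median and -100 = no signal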
Active calls of the source: *; i = inactive; ? = inconclusive; · = not tested or not shown; & = joins results of further samples. A portion of the library. The share of hits here may be higher or lower than overall.

Below each SMILES – MLL AF4-AF9 inh | FGF22 binding | Vif A3G | HNF4A DNA FP | ALR inh | E coli growth | rRNA inh HTS | rRNA inh HTS OD600 | rRNA inh HTS RFP
CCOC(=O)C(Cc1ccc(OC)c([N+](=O)[O-])c1)NC(=O)CCC(=O)Nc1ccc(OC)cc1 (centres undefined)
 : -17 | · | -3% | -4.4 | 2 | 0.71 | 5 | 1 | -4.3
CC(C)c1ccc(NC(=O)C2CC(=O)N(C3CCCC3)C2)cc1 (centres undefined)
 : 0.0 | i | · | 2.8 | -6 | 0.66 | 2 | 7 | -0.4
O=C(Cn1cc(C(=O)c2cccs2)c2ccccc21)NCC1CCCO1 (centres undefined)
 : · | · | -6% | -2.1 | -8 | 0.71 | · | · | ·
COc1ccc(CNC(=O)C(=O)NC2CCC(C)CC2)cc1 (centres undefined)
 : -3.2 | i | -1% | -2.0 | -13 | 0.67 | 6 | 15 | -0.4
C[C@H](CO)N1C[C@H](C)[C@@H](CN(C)S(=O)(=O)c2ccc(F)cc2)Oc2c(NC(=O)C3CCCCC3)cccc2C1=O
 : -0.1&2.7 | i | · | · | · | · | -4 | 7 | -0.2
C1CCc2nnc(-c3nnc4n3CCCCC4)n2CC1
 : · | · | -7% | -2.2 | -13 | 0.72 | · | · | ·
Cn1nc(CC(=O)NCc2cccc3ccccc23)c2ccccc2c1=O
 : · | · | ? | 2.4 | 3 | 0.74 | · | · | ·
CCOc1ccc(C(=O)NCCc2cnc[nH]2)cc1
 : -0.9 | i | 5% | -1.0 | -7 | 0.69 | 13 | 20 | -0.6
COCCNc1nc(-c2ccccc2)nc2ccccc12
 : -4.7 | i | -7% | 2.7 | 31 | 0.7 | -12 | -10 | -1.6
CN(C(=O)CSc1ncnc2ccccc12)C1CCCCC1
 : -0.6 | i | -5% | 2.7 | · | 0.62 | -9 | -10 | -1.8
Cc1c(C(=O)NCc2ccc(C(C)C)cc2)sc(=O)n1Cc1cccc(F)c1
 : 0.5 | i | · | 1.6 | · | · | 7 | 14 | 2.0
COc1ccc(CNC(=O)c2cccs2)cc1
 : · | · | -2% | 1.1 | -3 | 0.72 | · | · | ·
O=C(CCl)NC1CCCc2ccccc21 (centres undefined)
 : -2.2 | i | 8% | -2.1 | · | 0.68 | 13 | 16 | -1.7
COC(=O)c1c(NC(=O)c2ccco2)sc(C(=O)N(C)C)c1C
 : · | · | 4% | 2.7 | · | 0.72 | · | · | ·
Cc1ccc(-c2nc3ccsc3c(=O)[nH]2)cc1
 : -7.1 | i | -13% | -35 | 2 | 0.67 | 2 | 11 | -0.6

(more compounds)
Below each SMILES – MLL AF4-AF9 inh | FGF22 binding | Vif A3G | HNF4A DNA FP | ALR inh | E coli growth | rRNA inh HTS | rRNA inh HTS OD600 | rRNA inh HTS RFP
CCCC#Cc1ccc2c(c1)O[C@@H](CN(C)Cc1cncnc1)[C@H](C)CN([C@@H](C)CO)S2(=O)=O
 : 2.7 | i | · | · | · | · | -13 | -22 | -4.3
O=C(Oc1coc(CSc2ncccn2)cc1=O)c1cccc([N+](=O)[O-])c1
 : -3.5 | i | -2% | -3.6 | 97* | 0.68 | 9 | 2 | -2.3
O=C(O)c1cccc(-c2ccc(/C=N/NC(=O)C3COc4ccccc4O3)o2)c1 (centres undefined)
 : 0.0 | · | 3% | -1.1 | -1 | · | 4 | -4 | 2.0
CC1=NN(c2ccccc2)C(=O)/C1=C/N(C)C
 : -27 | i | 29% | -1.4 | 2 | 0.71 | 9 | -2 | 1.1
C[C@H](CO)N1C[C@H](C)[C@@H](CN(C)S(=O)(=O)c2cn(C)cn2)OCCCC[C@H](C)Oc2ccc(NC(=O)C3CCCCC3)cc2C1=O
 : -2.2 | i | · | · | · | · | 1 | -1 | 1.6
CC(C)C(NC(=O)C12CC3CC(CC(C3)C1)C2)C(=O)O (centres undefined)
 : · | · | 3% | 1.1 | 1 | 0.73 | · | · | ·
Cc1cc(C)cc(OCC(=O)NCCN2CCOCC2)c1
 : · | · | -2% | -2.3 | 1 | 0.75 | · | · | ·
O=C(NC(N1CCOCC1)C(Cl)(Cl)Cl)c1ccco1 (centres undefined)
 : -2.1 | i | 14% | -1.8 | 5 | 0.67 | 3 | 0 | -0.9
CC(=O)N(C)C[C@H]1Oc2cc(-c3ccc(F)cc3)ccc2S(=O)(=O)N([C@H](C)CO)C[C@@H]1C
 : -0.3 | i | · | · | · | · | -8 | -13 | 1.4
COc1ccc(-c2noc(COc3ccccc3OC)n2)cc1OC
 : 0.6 | i | 2% | -2.1 | 0 | 0.69 | -16 | -34 | -4.1
C[C@H](CO)N1C[C@H](C)[C@H](CN(C)CC2CCCCC2)OCCCC[C@H](C)Oc2ccc(NC(=O)CCCCCC(=O)Nc3ccccc3N)cc2C1=O
 : -3.4 | i | · | · | · | · | 3 | -2 | -1.7
COc1ccc(S(=O)(=O)N(C)C[C@H]2Oc3c(NC(=O)Nc4cccc5ccccc45)cccc3C(=O)N([C@@H](C)CO)C[C@@H]2C)cc1
 : 5.6 | i | · | · | · | · | 4 | -3 | 0.4
CCOC(=O)C1(CCSC)NC(c2ccco2)C2C(=O)N(CC)C(=O)C21 (centres undefined)
 : · | · | 3% | 1.0 | 0 | 0.71 | · | · | ·
Cc1cccc(-c2ncc(CN3CCC(CO)(CCCc4ccccc4)CC3)cn2)c1
 : 4.0 | i | 2% | -1.3 | -2 | 0.65 | -54 | -81 | -26
C[C@@H]1CN([C@H](C)CO)S(=O)(=O)c2ccc(C#CC3CC3)cc2O[C@@H]1CN(C)Cc1cccnc1
 : 12 | i | · | · | · | · | -3 | -15 | 4.2

3 compounds out of the list above, ordered by their value in HNF4A DNA FP, highest first:
Molecule	MLL AF4-AF9 inh	Vif A3G	HNF4A DNA FP	ALR inh	rRNA inh HTS	rRNA inh HTS OD600	rRNA inh HTS RFP
COC(=O)c1c(NC(=O)c2ccco2)sc(C(=O)N(C)C)c1C	·	4%	2.7	·	·	·	·
Cn1nc(CC(=O)NCc2cccc3ccccc23)c2ccccc2c1=O	·	?	2.4	3	·	·	·
CCOC(=O)C1(CCSC)NC(c2ccco2)C2C(=O)N(CC)C(=O)C21 (centres undefined)	·	3%	1.0	0	·	·	·

Later entries:
Below each SMILES – MLL AF4-AF9 inh | FGF22 binding | Vif A3G | HNF4A DNA FP | ALR inh | E coli growth | rRNA inh HTS | rRNA inh HTS OD600 | rRNA inh HTS RFP
c1ccc(-c2ccc(CNC3CC3)cc2)cc1
 : -17 | i | -10% | -0.6 | -4 | 0.65 | 12 | 7 | 0.2
COc1ccc(/C(C)=N/N=C2/NC(=O)CC(C(=O)O)S2)cc1F (centres undefined)
 : -2.8 | i | 6% | -3.1 | 2 | · | 10 | 9 | -0.5
O=S1(=O)N=C(Nc2nncs2)c2ccccc21
 : · | · | 1% | -1.6 | -2 | 0.76 | · | · | ·
Cc1cc(C)nc(Sc2ccc([N+](=O)[O-])cc2[N+](=O)[O-])n1
 : · | · | -5% | 1.5 | -15 | 0.72 | · | · | ·
O=C(NNC(=O)C1CC1)c1ccccc1[N+](=O)[O-]
 : -1.0 | i | 2% | -1.6 | -13 | 0.71 | 14 | 14 | 4.3
C[C@@H]1CN([C@H](C)CO)C(=O)c2cc(NC(=O)Nc3cccc4ccccc34)ccc2O[C@@H](C)CCCCO[C@H]1CN(C)C(=O)NC1CCCCC1
 : 0.1 | i | · | · | · | · | -1 | 2 | -2.2
CC(C#N)(NC(=O)COC(=O)c1ccccc1NCCO)C1CC1 (centres undefined)
 : -3.0 | i | 6% | 0.1 | -6 | 0.65 | 3 | -8 | 0.0
CCOC(=O)NC(c1ccc(C(C)C)cc1)C(Cl)(Cl)Cl (centres undefined)
 : -12 | i | 0% | 1.0 | -1 | 0.64 | 11 | 2 | 0.1
CCOc1cccc(-c2nnc3sc(COc4ccccc4)nn23)c1
 : · | · | 14% | 1.1 | -3 | 0.71 | · | · | ·
CCC(CO)NCc1ccc(-c2ccccc2)cc1 (centres undefined)
 : 8.1 | i | · | 11 | -5 | 0.66 | 0 | 4 | 15
C[C@@H]1CN([C@@H](C)CO)C(=O)Cc2cc(NC(=O)c3ccncc3)ccc2O[C@H]1CN(C)S(=O)(=O)c1ccc(Cl)cc1
 : 1.8 | i | · | · | · | · | -3 | -5 | -1.3
Cc1ccc(-c2cc(Cc3ccccc3)c(=O)[nH]n2)cc1
 : -1.7 | i | 7% | -1.4 | · | 0.7 | -36* | -29* | -2.0*
C[C@@H]1CCCCO[C@H](CN(C)C(=O)Nc2ccc(C(F)(F)F)cc2)[C@H](C)CN([C@@H](C)CO)C(=O)c2cc(NS(=O)(=O)c3ccc(F)cc3)ccc2O1
 : -0.7 | i | · | · | · | · | 2 | 9 | -2.3
COc1ccc(/C(O)=C2\C(=O)C(=O)N(CCN3CCOCC3)C2c2ccccc2OC)cc1 (centres undefined)
 : 2.5 | i | · | -3.4 | · | 0.71 | · | · | ·
CCOC(=O)CCCNC(=O)COC(=O)c1cc2ccccc2cc1O
 : · | · | 28% | -4.4 | -32 | 0.67 | · | · | ·

(list continues)
Below each SMILES – MLL AF4-AF9 inh | FGF22 binding | Vif A3G | HNF4A DNA FP | ALR inh | E coli growth | rRNA inh HTS | rRNA inh HTS OD600 | rRNA inh HTS RFP
Cc1nc2ccc(NS(=O)(=O)c3ccc(C)c(C)c3)cc2s1
 : · | · | 2% | 0.4 | -3 | 0.69 | · | · | ·
COc1ccc(NC(=O)CN2CCc3ccccc3C2)c([N+](=O)[O-])c1
 : 3.7 | i | · | 3.2 | -9 | 0.63 | -6 | -8 | 0.5
Cc1nc2ccccc2n1/C(=N\S(=O)(=O)c1ccccc1)c1ccccc1
 : -2.5 | i | 7% | 0.0 | -2 | · | 23 | 13 | 1.2
O=C(O)C1CCCN1S(=O)(=O)c1ccc(F)cc1 (centres undefined)
 : -1.8 | i | 8% | -7.4 | · | 0.69 | 3 | 9 | -2.1
COc1cccc(CNC(=O)C[C@H]2C=C[C@H](NC(=O)C3CCOCC3)[C@@H](CO)O2)c1
 : -0.7 | i | · | · | · | · | 4 | 9 | 0.9
CCN1C[C@@H]2[C@@H]3C(=O)N(C)C(=O)[C@@H]3[C@](CC)(C(=O)OC)N2C1=NC
 : -1.7 | · | -1% | -0.9 | · | 0.72 | 0 | 11 | -1.5
Cc1nc(C)n(CC(O)COc2ccc(C(=O)c3ccccc3)cc2)n1 (centres undefined)
 : · | · | 12% | -5.8 | -11 | 0.66 | · | · | ·
Cc1c(O)nc2sc3ccccc3n2c1=O
 : -0.3 | i | · | · | 21 | 0.64 | 0 | -19 | -2.7
COc1ccc(N2C(=O)C3C(C2=O)C(C(=O)c2ccccc2)N2CCCC32)cc1 (centres undefined)
 : 4.2 | i | 15% | 2.6 | -4 | · | 9 | 5 | 3.6
CCOC(=O)N1CCN(C(=O)c2ccc(CN(c3ccccc3)S(C)(=O)=O)cc2)CC1
 : · | · | 10% | -0.5 | 1 | 0.69 | · | · | ·
COc1ccc(NCc2cc(=O)[nH]c3ccccc23)cc1
 : -8.2 | i | 9% | -0.2 | 99* | 0.68 | 4 | -14 | 6.7
CC(=O)N1CCN(S(=O)(=O)c2cccc(C(=O)OCC(=O)Nc3c(Cl)cccc3C(F)(F)F)c2)CC1
 : -4.2 | i | · | 0.0 | · | 0.69 | 3 | -2 | -1.0
O=C(CN1C(=O)COc2ccccc21)NNC(=O)Nc1ccccc1F
 : 3.4 | i | · | 0.5 | 10 | 0.69 | 3 | 6 | -0.1
